Assay outcomes deposited in PubChem by National Center for Advancing Translational Sciences (NCATS).
Vaccinia Venus: inhibitors of vaccinia virus (Venus reporter) | Vaccinia virus Venus reporter expression, fluorescence | Potency, µM (top dose mostly 36.5 µM), without a hit: at the top dose activity change, negative = inhibition, actives largely listed as inhibitors | 330,000 compounds, 0.46% hits | AID 720580; active means well fitted inhibition curve with a large enough effect; inconclusive means small, poorly fitted or top-dose-only effect; inactive means no such curve, though single readings can be large or run the other way; tested in A549 cells; also: nearly all actives have a fitted effect of over 30% in size; inactives centre near -10
Vaccinia mCherry: vaccinia inhibition (mCherry reporter). Vaccinia virus mCherry reporter infection, fluorescence; about a quarter of the inactives have no number. Potency, µM (doses to about 36.5 µM), inactives show top-dose activity change, negative = inhibition, hits mostly inhibitors. 310,000 compounds, 0.63% hits. AID 720579; active = well fitted inhibition curve with a large enough effect; inconclusive = small, poorly fitted or top-dose-only effect; inactive = no such curve, though single readings can be large or run the other way; tested in A549 cells; also: nearly all actives have a fitted effect of over 35% in size; inactives centre near -10
* = called active by the depositor; i = inactive; ? = inconclusive; / = not tested or not shown; & = joins results of further samples; [ ] = dose if it differs, or a comment. % is scaled to controls: 0 for no effect and ±100 for the full control effect; potency is read from the fitted curve at half-maximal effect. The order is random (roughly 0.86% active in at least one column).

canonical_smiles,Vaccinia Venus,Vaccinia mCherry
N#CCCCCn1ccc(NC(=O)c2ccc(Cl)cc2O)n1,-12.2%,-15.5%
C=CCN(C(=O)c1csnn1)C(C(=O)NC1CCCC1)c1ccc(Cl)cc1 (stereo not drawn),8.0%,-3.3%
O=C(Nc1cc(-c2ccc(F)c(F)c2)no1)c1ccccc1F,-12.3%,-1.5%
CN(Cc1ccccc1)C(=O)CSc1nc(-c2ccc(F)cc2)cc(C(F)(F)F)n1,-5.5%,i
CCNc1nc(NC(C)C)nc(N(n2cnnc2)S(=O)(=O)c2ccc(C)cc2)n1,-27.4%,-29.1%
N#Cc1ccc2c(c1)nc1ccccn12,-14.8%,i
COc1ccccc1NC(=O)CN1CCN(c2ccc(Cl)cc2)CC1,-24.1%,-12.8%
CC(=O)Oc1ccccc1N(C(C)=O)S(=O)(=O)c1cccc([N+](=O)[O-])c1,-8.8%,-10.5%
Cc1c(C(=O)OCCOC(C)C)[nH]c2c1C(=O)CC(C)(C)C2,-14.5%,-11.8%
COc1cccc2sc3ccc(C#Cc4ccc(N)cc4)cc3c(=O)c12,?,?
O=C(NCCn1cc(SCc2cccc(F)c2)c2ccccc21)c1cccc(C(F)(F)F)c1,?,?
Cc1cc(C(=O)Nc2ccc3c(c2)OCCO3)c(C)o1,-0.4%,-15.0%
CC(=O)Nc1ccc(N2C(=O)CSC2c2ccc([N+](=O)[O-])cc2)cc1 (stereo not drawn),-17.7%,-27.6%
CCC(C)[C@H](NC(=O)[C@@H]1Cc2ccccc2CN1C(=O)OC(C)(C)C)C(=O)NCC1CCC(C(=O)O)CC1 (stereo partly drawn),-7.8%,i
O=C(O)c1ccccc1OCCOc1ccccc1,-8.5%,/
CCC1(CC)Cc2ccccc2C2=C(C(=O)N3CCCCC3)C(=O)C(=O)N21,-5.1%,i
COC(=O)c1cn(Cc2cc(OC)ccc2OC)cc(F)c1=O,-7.7%,-13.7%
Cc1onc(-c2c(Cl)cccc2Cl)c1C(=O)N=C(N)N1CCCC1,-18.7%,-6.1%
O=C(OCC(=O)N1CCc2ccccc2C1)c1ccc(N2CCOCC2)c([N+](=O)[O-])c1,-5.2%,-1.0%
Brc1ccccc1Cn1c(-c2cncs2)nc2ccccc21,-14.0%,-12.1%
COc1ccc(NC(=O)Nc2ccccc2SC)cc1,-12.8%,i
CC(NC(=O)C1CCCC1)c1ccccc1 (stereo not drawn),-10.6%,-19.3%
COc1ccc(CN2C(=O)C(CC(=O)NCCc3ccccn3)CC(C(=O)N(C)C)=C2C)cc1 (stereo not drawn),-5.2%,-17.5%
CC1CCC(NC(=O)CSc2nnc(-c3cccnc3)o2)CC1 (stereo not drawn),-7.4%,-14.5%
COCCNc1nc2c(S(=O)(=O)c3ccc(C)c(C)c3)nnn2c2ccc(Cl)cc12,-24.3%,?
Cc1c(Br)c(-c2n[nH]c(=S)n2Cc2ccco2)nn1C,-1.7%,-8.9%
COc1ccc(CN2CCN(Cc3ccc(OC)c(OC)c3OC)CC2)cc1,-1.7%,-7.6%
O=C(NCCCO)c1ccc(CSc2nc3ccccc3c(=O)[nH]2)cc1,-10.3%,i
CSc1ccc(C2C(C(=O)Nc3ccccc3)=C(C)Nc3nc4ccccc4n32)cc1 (stereo not drawn),?,?
CCCn1cnc2c(SCc3ccccc3Cl)nc(N)nc21,-19.6%,-17.1%

(list continues)
canonical_smiles,Vaccinia Venus,Vaccinia mCherry
CC(C)CC(=O)C(=O)O,-10.2%&-16.2%,-17.3%
CCOC(=O)C(C)/C(C)=N/NC(=O)c1cc2ccccc2cc1O (stereo not drawn),2.2%,i
Cc1ccc(NC(=O)c2ccc(C)c(S(=O)(=O)N3CCCCC3)c2)nc1,-13.0%,-1.3%
COc1ccc(S(=O)(=O)NCCc2nnc3ccc(SCC(=O)Nc4cc(C)cc(C)c4)nn23)cc1,-13.3%,-13.7%
O=c1cc(NCc2ccccc2)nc2ccccn12,-26.6%,i
Nc1ccc(N2CCCCC2)cc1N1CCCCC1,?,/
COc1cc(/C=C2/C(=O)NN(c3ccc(F)cc3)C2=O)cc([N+](=O)[O-])c1O,-20.3%,2.4%
COC(=O)c1ccc(-c2ccc([C@H]3[C@H]4C=CC[C@@H](C)[C@@H]4C(=O)N3Cc3ccccc3)c(F)c2)cc1,-12.6%,-13.2%
Cc1nn(C)cc1CNC(=O)Nc1ccc(Cl)c(Cl)c1,-18.0%,?
C=CC[C@@H](CC(=O)N[C@@H](CO)Cc1ccccc1)C(=O)NC[C@@H](OC(=O)[C@@H](CC=C)CC(=O)OC(C)(C)C)c1ccccc1,-28.2%,i
CCN(CC)CCNC(=O)Cc1c(C(=O)O)n(CC)c2ccccc12,-6.2%,-9.7%
O=C(CNC(=O)c1ccc(Cl)cc1Cl)OCCOc1ccccc1,-7.7%,-13.9%
CCOC(=O)c1ccccc1NC(=O)CN(c1cc(C(F)(F)F)ccc1Cl)S(C)(=O)=O,-4.8%,-12.5%
CCCSc1ccc([C@H]2N[C@@](C)(C(=O)OC)[C@H]3C(=O)N(C)C(=O)[C@@H]23)cc1,-6.2%,i
COc1cccc(/C=C/c2nc3ccccc3c(=O)n2-c2ccc(Cl)cc2)c1OC,-23.8%,-21.4%
O=C(O)C1C2CCC(C2)C1C(=O)N1CCCC1 (stereo not drawn),-5.8%,-14.7%
O=C(O)C1CCCCC1C(=O)N1CCN(S(=O)(=O)c2ccc(F)cc2)CC1 (stereo not drawn),-2.4%,-12.8%
Cc1cccc2c1N(CCOc1ccc(C(C)(C)C)cc1)C(=O)C2=O,-21.3%,?
O=c1[nH]c2cc3c(cc2cc1CN(Cc1cccs1)Cc1nnnn1Cc1ccco1)OCCO3,6.9%,-11.2%
COc1ccc(NC(=O)CCn2c(=O)c3cccn3c3ccccc32)c(OC)c1,-8.2%,-2.9%
Cc1ccc(NC(=O)Cn2cnc3c(=O)n(C)c(=O)n(C)c32)c(C)c1,-6.7%,i
Cc1ccc(C(=O)N(c2ccccc2)C2CC(C)N(C(=O)c3ccco3)c3ccccc32)cc1 (stereo not drawn),?,?
CCc1ccc(CNCCNCC(C)O)cc1 (stereo not drawn),-12.7%,-16.2%
COc1ccc(S(=O)(=O)N2c3cc(Cl)ccc3Oc3nc4ccccc4nc32)cc1,?,/
COC(=O)[C@]12CCCCC=C1N(Cc1cccc3ccccc13)C(=O)[C@H](CC(=O)NCc1cccc3ccccc13)C2,-7.4%,-20.0%
CC1=C(C(=O)Nc2ccc(C)cc2)C(c2ccc(C)o2)C2=C(CC(C)(C)CC2=O)N1 (stereo not drawn),-13.0%,i
CS(=O)(=O)c1ccc(Nc2nc(C(N)c3ccccc3)cs2)cc1 (stereo not drawn),-3.9%,i
COc1ccc(CN(Cc2ccc(C(=O)O)cc2)C(=S)Nc2cccc(C)c2)cc1OC,-17.7%,i
COc1ccc(-c2noc(N3CCC(C(=O)Nc4cccc(C)c4C)CC3)n2)cc1,-11.5%[7.34 µM],-9.7%[7.34 µM]
OCCCc1cn(CC2CCCCC2)nn1,-12.7%,-18.7%

Next entries follow:
canonical_smiles,Vaccinia Venus,Vaccinia mCherry
O=C(O)CCc1nn2c3ccccc3nc2n(-c2ccccc2)c1=O,-6.1%,-9.8%
O=C(N[C@H](CO)Cc1ccccc1)[C@H]1O[C@@H](n2ccc(=O)[nH]c2=O)[C@H](O)[C@@H]1O,-7.2%,11.3%
CCOc1ccc(NC2=CC(=O)CC(c3ccco3)C2)cc1 (stereo not drawn),-14.8%,-4.4%
Cc1ccc(Oc2cc(C)nc(-c3ccccc3O)n2)cc1,-11.0%,/
CCN(CC)S(=O)(=O)c1cccc(C(=O)NC(C)C(c2cccs2)N2CCCC2)c1 (stereo not drawn),-11.9%,-6.8%
CCc1ccc(OC(=O)c2sc3ncn(Cc4cccc(F)c4)c(=O)c3c2C)cc1,-19.5%,-4.6%
O=C1c2ccccc2C(=O)N1CCCN1C(=O)c2ccccc2C1=O,-13.6%,i
Cc1cc(C)cc(NC(=O)N2CCC(CN3CCc4ccccc4C3)CC2)c1,-3.7%,i
CSc1ccc(CN2CCC2(C)C(=O)Nc2cccc(Oc3ccccc3)c2)cc1 (stereo not drawn),-10.2%,-13.3%
COc1ccccc1-c1oc2ccccc2c1-c1ccc2c(c1)OCO2,-10.4%,-3.9%
COc1ccccc1C1=NS(=O)(=O)N(C)C(C(=O)Nc2cc(OC)c(OC)c(OC)c2)=C1,-18.9%,-13.4%
COc1cccc(/C=C/C(=O)OCC(=O)NCc2ccco2)c1OC,-4.0%,i
COc1ccc(C)cc1Nc1nc(-c2cccc(Cl)c2)c2c(n1)-c1ccccc1OC2,2.7%,2.6%
COC(=O)c1ccccc1NC(=O)CN(c1ccc(Cl)cc1)S(=O)(=O)c1ccc(OC)cc1,-13.2%,-15.1%
CC(C)C[C@@H](CN1CCCC1CN1C(=S)NC[C@@H]1Cc1ccc(O)cc1)N1C[C@H](Cc2ccc(O)cc2)N(CC2CCCCC2)C1=S (stereo partly drawn),10µM*,?
Cc1ccc(CNC(=O)CCCCn2c(=O)c3ccccc3n(Cc3c(C)cc(C)cc3C)c2=O)cc1,6.3%,5.8%
Cc1sc2nc(-c3cccnc3)[nH]c(=O)c2c1-c1ccccc1,-15.8%,i
O=C(CCn1nc(-c2ccc(Cl)cc2)ccc1=O)N1CCN(c2ccccn2)CC1,-27.0%,-29.3%
CCOC(=O)C(CC)Sc1ncnc2sc3c(c12)CCCC3 (stereo not drawn),7.3%,6.2%
O=P(NC1CCCCC1)(Oc1ccccc1)Oc1ccccc1,-6.2%,i
COC(=O)c1c(OCc2cccnc2)cc(=O)n2c1CCN(C(=O)c1c3c(nn1C)CCCC3)CC2,-13.7%,-14.7%
O=C(c1ccccc1-c1nc(-c2ccccc2Cl)no1)N1CCOCC1,-4.3%,-1.2%
CCOc1ccccc1NC(=O)Cn1c(=O)n(CCCC(=O)NCCOC)c(=O)c2cc(OC)c(OC)cc21,0.7%,-0.8%
O=C(Cn1c2ccccc2c(=O)c2ccccc21)N/N=C/c1cc([N+](=O)[O-])ccc1N1CCCCC1,-13.6%,i
Cc1ccc(Oc2ncccc2/C=N/OCc2ccc(Cl)c(Cl)c2)cc1,-23.1%,/
COc1ccccc1N(CC(=O)Nc1ccc2c(c1)OCO2)S(=O)(=O)c1ccc(C)cc1,-8.2%,-7.7%
CCCCCCn1c(=O)n2n(c1=O)[C@@H]1CN(S(=O)(=O)c3ccc(C)cc3)C[C@]1(O)[C@@H](OC(=O)NCc1ccccc1F)C2,?,-20.0%
O=C1CCCC1C(=O)Nc1ccc2ccccc2c1 (stereo not drawn),-21.0%,i
NS(=O)(=O)c1ccc(NC(=O)c2cc(-c3ccccc3O)n[nH]2)cc1,-9.4%,-4.0%
COc1ccc(N(Cc2cc3ccccc3[nH]c2=O)S(=O)(=O)c2ccc(C)cc2)cc1,-9.1%,i

Part of the list above, field by field:
CCOc1ccc(NC2=CC(=O)CC(c3ccco3)C2)cc1 (stereo not drawn)
- Vaccinia Venus: -14.8%
- Vaccinia mCherry: -4.4%
Cc1ccc(Oc2cc(C)nc(-c3ccccc3O)n2)cc1
- Vaccinia Venus: -11.0%
- Vaccinia mCherry: /
CCN(CC)S(=O)(=O)c1cccc(C(=O)NC(C)C(c2cccs2)N2CCCC2)c1 (stereo not drawn)
- Vaccinia Venus: -11.9%
- Vaccinia mCherry: -6.8%

Continuation:
canonical_smiles,Vaccinia Venus,Vaccinia mCherry
Cc1nn(-c2ccccc2)c2c1C(c1cccs1)C(C#N)=C(N)O2 (stereo not drawn),-8.5%,/
CCCNC(=O)C1(C)CCN(Cc2csc(-c3ccc(Cl)cc3)n2)C1 (stereo not drawn),-12.5%,i
CCCC1=[N+](CC)CCn2c(C)ccc21,-21.9%,-23.0%
O=C(Nc1ccncc1)c1cccs1,-11.6%,i
CC1(C(=O)NS(=O)(=O)c2ccccc2C(F)(F)F)CCN1C(=O)COc1ccc(Cl)cc1 (stereo not drawn),-1.1%,-7.1%
COc1ccc(NS(=O)(=O)c2ccc3c(c2)n(C)c(=O)n3C)cc1,-17.3%,-21.5%
O=C(Nc1ccccc1)c1ccc(F)cc1F,5.9%,0.2%
Cc1cc(C)cc(N(CC(=O)NC2CCC(C)CC2)S(=O)(=O)c2c(C)noc2C)c1 (stereo not drawn),?,5.2%
CC(C)c1noc2ncc(C(=O)c3cc(Cl)cc(Cl)c3O)cc12,-13.4%,i
Cc1ccc(/C=C/c2onc(C)c2S(=O)(=O)N2CCC(C(=O)NCC(C)c3ccccc3)CC2)cc1 (stereo not drawn),-21.1%,-18.7%
CC(=O)N1C[C@H]2CON(C)[C@H]2C[C@H]1c1ccccc1,-8.8%,11.4%
O=C(N/N=C/c1cc(Br)ccc1O)c1cccc(N2CCCC2=O)c1,?,7.94µM*
Cc1ccc(CSCCNC(=O)CN(c2cc(C)ccc2C)S(C)(=O)=O)cc1,-13.1%,-3.9%
O=c1cc(N2CCCC2)[nH]c(=O)n1-c1ccc(Cl)cc1,-3.9%,-2.3%
